# VDR inh: inhibitors of human vitamin D receptor; VDR-SRC2-3 peptide fluorescence polarization, 2 h; actives 0.93% (n = 400,000); Potency, µM, for the others: max response, negative = inhibition, hits mostly inhibitors; active means well fitted inhibition curve with a large enough effect; inconclusive means small, poorly fitted or top-dose-only effect, or another doubt; inactive means no such curve, though single readings can be large or run the other way; further: series mostly up to about 120 µM
# Target sequence (P11473 whole entry, looked up): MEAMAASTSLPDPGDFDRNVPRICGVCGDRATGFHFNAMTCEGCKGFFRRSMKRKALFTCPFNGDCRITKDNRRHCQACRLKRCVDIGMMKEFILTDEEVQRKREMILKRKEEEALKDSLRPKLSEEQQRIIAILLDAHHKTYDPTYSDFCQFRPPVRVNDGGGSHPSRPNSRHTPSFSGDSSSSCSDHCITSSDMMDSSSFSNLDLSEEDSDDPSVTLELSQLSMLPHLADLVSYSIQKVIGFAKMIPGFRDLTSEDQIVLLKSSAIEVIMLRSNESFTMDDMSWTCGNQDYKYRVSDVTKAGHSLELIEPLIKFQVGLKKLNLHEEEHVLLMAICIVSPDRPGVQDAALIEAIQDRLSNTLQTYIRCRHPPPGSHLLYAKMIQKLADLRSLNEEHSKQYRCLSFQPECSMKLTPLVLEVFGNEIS
#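 The screen uses fluorescence polarization to detect compounds that interfere with recruitment of the SRC2-3 coactivator peptide to VDR; plates are read after 2 h at room temperature.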
# An asterisk follows results filed as active; ? = inconclusive. On the % scale 0 is the no-effect control and ±100 the full control effect; potency means the concentration at half of the fitted maximal effect. These rows are one share of the data. The share of hits here may be higher or lower than overall.
cpd | smiles | VDR inh
1 | CC(=O)c1c(C)nc(-c2ccc(Cl)cc2)nc1N=CN(C)C | 0%
2 | CN1C(=O)Cc2cc(S(=O)(=O)NCc3ccc(Cl)cc3)ccc21 | 19%
3 | CCc1cccc(NC(=O)Cn2ncn3c(cc4ccccc43)c2=O)c1 | -2%
4 | CCOC(=O)c1[nH]c(=O)[nH]c1CSc1ccccn1 | -20%
5 | Cc1ccc(CSc2sc(C(=O)c3ccccc3)c(N)c2C#N)cc1 | -4%
6 | Cc1ccc(C(=O)O[C@H](C(=O)O)[C@@H](OC(=O)c2ccc(C)cc2)C(=O)O)cc1 (tested in a mixture with another compound) | 2%
7 | Cn1nnnc1SCCNC/C=C/c1ccccc1 | -4%
8 | O=S(=O)(Nc1cccnc1)c1ccc2c(c1)OCCO2 | 4%
9 | COc1ccc(OCC(O)CNC(=O)Nc2cc(C)cc(C)c2)cc1 (centres undefined) | ?
10 | CC(C)c1ccccc1NC(=O)COC(=O)c1cccnc1 | -6%
11 | CN1CCN(C(N)=NC(=O)c2ccccc2)CC1 | -14%
12 | Cc1ccc(S(=O)(=O)n2nc(-c3cccnc3)nc2N)cc1 | 10%
13 | COc1ccc(NS(=O)(=O)c2cccc(C(=O)N3CCN(Cc4cc(OC)ccc4OC)CC3)c2)cc1 | 4%
14 | CC1CN(C(=O)C2CCCN2S(=O)(=O)c2ccc(Cl)cc2)CC(C)O1 (centres undefined) | 10%
15 | Cn1cccc1C(=O)OCC(=O)Nc1ccc2[nH]c(=O)[nH]c2c1 | 2%
16 | COc1ccc(-c2nnc(SCC(=O)c3cccs3)o2)cc1 | 0%
17 | COc1ccc([N+](=O)[O-])cc1/C=N/Nc1nc(N2CCCCC2)nc(N2CCCCC2)n1 | -20%
18 | N#Cc1cccc(C(=O)N(CCc2ccccc2)Cc2cccs2)c1 | 2%
19 | CN(C)CCN(Cc1ccco1)S(=O)(=O)c1cc2c(cc1Cl)NC(=O)CO2 | 1%
20 | OCCN1CCN(c2cc(-c3ccccc3)c3ccccc3n2)CC1 | -17%
21 | CC(C)(C)NC(=O)Cn1c(SCC(N)=O)nc2ccccc21 | ?
22 | COc1ccc(OC)c(Nc2ncnc3ccccc23)c1 | 2%
23 | CCOC(=O)C1C(=O)OC(C)(C)C1C(C)C(=O)c1ccccc1 (centres undefined) | 6%
24 | Cc1cc(Cl)c(S(=O)(=O)N2CCN(c3ccccn3)CC2)cc1OCC(=O)NC1CCCCC1 | ?
25 | COc1ccc(CC(=O)Nc2cccc(Cl)c2C)cc1S(=O)(=O)N1CCOCC1 | 3%
26 | O=C(O)c1ccccc1-c1nc2ccccc2c(=O)[nH]1 | -7%
27 | CCCCCCCCC(=O)NNC(=O)c1c(O)c2ccccc2n(CC)c1=O | 0%
28 | Cc1sc(NC(=O)CSc2nnc(CCNC(=O)c3cccs3)n2C)nc1-c1ccccc1 | 3%
29 | CCOC(=O)C1(CCOC)CCN(Cc2ccccc2-c2ccco2)CC1 | -8%
30 | CCc1cc(Cn2nc(-c3ccccc3)cc2C(=O)O)on1 | 3%
31 | Cn1c(=O)n(C)c2cc([N+](=O)[O-])c(N3CCN(S(=O)(=O)c4ccc5ccccc5c4)CC3)cc21 | -1%
32 | Cc1ccc2c(c1)C(c1ccccc1)N(C(=O)c1cc3ccccc3oc1=O)CC(=O)N2 (centres undefined) | -15%
33 | O=C(C1CCCC1)N1CCCC(Nc2ccc(F)cc2)C1 (centres undefined) | 0%
34 | COc1cccc(NC(=O)Cn2c(=O)n(-c3ccc(C)cc3)c(=O)c3ccc(C(=O)NCc4ccco4)cc32)c1 | ?
35 | Cc1cc(C)c(C)c(S(=O)(=O)N2CCN(Cc3nc4ccccc4[nH]3)CC2)c1C | -5%
36 | O=C(CSc1ccc2ccccc2c1)NCc1cccs1 | 6%
37 | O=C1CN(C(=O)c2ccccc2C(F)(F)F)C(c2ccccc2)c2cc(F)ccc2N1 (centres undefined) | -4%
38 | COCC(C)N1CC(O)=C(c2nc(-c3ccc(Cl)cc3)cs2)C1=N (centres undefined) | 13%
39 | CCOc1cc(N2CCOCC2)c(OCC)cc1NC(=O)c1cc(S(=O)(=O)N2CCOCC2)ccc1F | 0%
40 | CC(=O)Nc1ccc2sc(NC(=O)CN3CCOCC3)nc2c1 | 2%
41 | N#Cc1ccccc1Cn1nnc2c(=O)[nH]c(C3CCCN(S(=O)(=O)c4ccc(F)cc4)C3)nc21 (centres undefined) | 5%
42 | CC(=O)N1CCN(c2nnc(-c3ccc(C)cc3)c3ccccc23)CC1 | 11%
43 | O=S(=O)(Nc1nc2ccc(Cl)cc2s1)c1cccs1 | -2%
44 | CCCSc1ccc([C@H]2N[C@@](C)(C(=O)OC)[C@H]3C(=O)N(C)C(=O)[C@@H]23)cc1OC | -14%
45 | Cc1cccc(Nc2nc(N)c(C#N)c(CC#N)c2C#N)c1 | -16%
46 | CCCCNC(=O)c1cccc(NC(=O)c2nsc3ccccc23)c1 | 6%
47 | O=C(NCCO)NC(=S)c1ccccc1 | -7%
48 | CN(C)c1ccc(/C=N\S(=O)(=O)c2ccccc2)cc1 | -24%
49 | COC(=O)CN1C(=S)N(c2ccc(OC)cc2)C(=O)/C1=C/c1ccc(OC)cc1 | -17%
50 | C=CCNC(=O)c1onc(CSc2cccc3ccccc23)c1C(=O)O | -16%
51 | COC(=O)c1ccccc1NC(=O)C1CCN(S(=O)(=O)c2cc(OC)ccc2OC)CC1 | -7%
52 | Cc1ccc(NC(=O)CSc2nnc3ccccn23)cc1S(=O)(=O)N1CCOCC1 | -5%
53 | COC(=O)/C(=C(O)\C=C\c1ccccc1[N+](=O)[O-])c1nc2ccccc2[nH]1 | 7%
54 | CC(C)CC(NC(N)=O)C(=O)Nc1ccc(Oc2ccccc2)cc1 (centres undefined) | -4%
55 | Cc1cc(C2=NNC(=NC3CCCCC3)SC2)c(C)n1-c1c(C)n(C)n(-c2ccccc2)c1=O | -12%
56 | COc1ccc(OCCn2cc(/C=C(\C#N)C(=O)NCc3ccco3)c3ccccc32)cc1 | 5%
57 | CCN1CCN(S(=O)(=O)c2ccc(Cl)c(C(=O)Nc3nnc(CC(C)C)s3)c2)CC1 | 7%
58 | Cc1c(C)n2c3c(cccc13)CC2 | -6%
59 | O=C(O)c1cccc(N2C(=O)/C(=C/c3ccc([N+](=O)[O-])cc3)C=C2c2ccccc2)c1 | ?
60 | Cc1ccc2c(c1)N(C(=O)CCC(=O)NCc1ccccn1)CC(C)O2 (centres undefined) | 15%

# Next section.
cpd | smiles | VDR inh
61 | COc1ccc2[nH]c3c(c2c1)CCN1C(=O)C(CC(=O)NCCN2CCOCC2)C[C@H](C(=O)N2CCCCC2)[C@@]31C (some centres undefined) | 7%
62 | CC(NC(=O)C1CCC(CNc2c(N3CCOCC3)c(=O)c2=O)CC1)c1ccccc1 (centres undefined) | -22%
63 | COc1ccc(C(=O)COC(=O)[C@H](C)NS(=O)(=O)c2ccc(NC(C)=O)cc2)cc1OC | -1%
64 | CCn1cc([N+](=O)[O-])c(C(=O)N2N=C3/C(=C/c4cccs4)CCCC3C2c2cccs2)n1 (centres undefined) | -6%
65 | Nc1ccc2oc(CCc3ccccc3)nc2c1 | -6%
66 | COc1cccc(CNc2nccn(-c3cc(C)cc(C)c3)c2=O)c1 | 5%
67 | CN(C(=O)c1ccccc1Cl)C1CCCCC1 | -3%
68 | CCCOc1ccc(/C(O)=C2/C(=O)C(=O)N(c3ccccn3)C2c2ccc(OC)cc2)cc1C (centres undefined) | ?
69 | Cn1c(NC(=O)c2ccccc2)c(-c2cccs2)c(=O)c2ccccc21 | -4%
70 | CSc1ccccc1NC(=O)CN(C)Cc1c(O)ccc2ccccc12 | ?
71 | COc1ccc(-c2nc3c4ccccc4n(CC(=O)N4CCN(c5ccccc5F)CC4)c(=O)n3n2)cc1 | 7%
72 | Cc1ccc(OCCCCc2c(C)n[nH]c2C)cc1 | 7%

# Retrieved one by one from the entries so far (3):
cpd | smiles | VDR inh
66 | COc1cccc(CNc2nccn(-c3cc(C)cc(C)c3)c2=O)c1 | 5%
61 | COc1ccc2[nH]c3c(c2c1)CCN1C(=O)C(CC(=O)NCCN2CCOCC2)C[C@H](C(=O)N2CCCCC2)[C@@]31C (some centres undefined) | 7%
71 | COc1ccc(-c2nc3c4ccccc4n(CC(=O)N4CCN(c5ccccc5F)CC4)c(=O)n3n2)cc1 | 7%

# (more compounds)
cpd | smiles | VDR inh
73 | CC1(C)Cc2c(cnn2-c2cccc(F)c2)C(NC(=O)CSc2ccncc2)C1 (centres undefined) | -3%
74 | CCC(C)(C)n1nnnc1C(c1ccc(F)cc1)N1CCC(C(N)=O)CC1 (centres undefined) | 10%
75 | C/C(=C\C(=O)c1ccc(Br)cc1)NCc1ccccc1 | -3%
76 | C#CC1(NC(=O)N(C)C)CCCCC1 | 4%
77 | COc1ccc(S(=O)(=O)N(CC(=O)N2CCc3ccccc3C2)c2ccc(C)cc2)cc1 | -4%

# 25 compounds out of the list, sorted by formula weight, rising.
cpd | smiles | VDR inh
58 | Cc1c(C)n2c3c(cccc13)CC2 | -6%
65 | Nc1ccc2oc(CCc3ccccc3)nc2c1 | -6%
4 | CCOC(=O)c1[nH]c(=O)[nH]c1CSc1ccccn1 | -20%
45 | Cc1cccc(Nc2nc(N)c(C#N)c(CC#N)c2C#N)c1 | -16%
10 | CC(C)c1ccccc1NC(=O)COC(=O)c1cccnc1 | -6%
15 | Cn1cccc1C(=O)OCC(=O)Nc1ccc2[nH]c(=O)[nH]c2c1 | 2%
12 | Cc1ccc(S(=O)(=O)n2nc(-c3cccnc3)nc2N)cc1 | 10%
1 | CC(=O)c1c(C)nc(-c2ccc(Cl)cc2)nc1N=CN(C)C | 0%
75 | C/C(=C\C(=O)c1ccc(Br)cc1)NCc1ccccc1 | -3%
43 | O=S(=O)(Nc1nc2ccc(Cl)cc2s1)c1cccs1 | -2%
54 | CC(C)CC(NC(N)=O)C(=O)Nc1ccc(Oc2ccccc2)cc1 (centres undefined) | -4%
3 | CCc1cccc(NC(=O)Cn2ncn3c(cc4ccccc43)c2=O)c1 | -2%
46 | CCCCNC(=O)c1cccc(NC(=O)c2nsc3ccccc23)c1 | 6%
53 | COC(=O)/C(=C(O)\C=C\c1ccccc1[N+](=O)[O-])c1nc2ccccc2[nH]1 | 7%
50 | C=CCNC(=O)c1onc(CSc2cccc3ccccc23)c1C(=O)O | -16%
74 | CCC(C)(C)n1nnnc1C(c1ccc(F)cc1)N1CCC(C(N)=O)CC1 (centres undefined) | 10%
44 | CCCSc1ccc([C@H]2N[C@@](C)(C(=O)OC)[C@H]3C(=O)N(C)C(=O)[C@@H]23)cc1OC | -14%
73 | CC1(C)Cc2c(cnn2-c2cccc(F)c2)C(NC(=O)CSc2ccncc2)C1 (centres undefined) | -3%
35 | Cc1cc(C)c(C)c(S(=O)(=O)N2CCN(Cc3nc4ccccc4[nH]3)CC2)c1C | -5%
52 | Cc1ccc(NC(=O)CSc2nnc3ccccn23)cc1S(=O)(=O)N1CCOCC1 | -5%
77 | COc1ccc(S(=O)(=O)N(CC(=O)N2CCc3ccccc3C2)c2ccc(C)cc2)cc1 | -4%
51 | COC(=O)c1ccccc1NC(=O)C1CCN(S(=O)(=O)c2cc(OC)ccc2OC)CC1 | -7%
63 | COc1ccc(C(=O)COC(=O)[C@H](C)NS(=O)(=O)c2ccc(NC(C)=O)cc2)cc1OC | -1%
57 | CCN1CCN(S(=O)(=O)c2ccc(Cl)c(C(=O)Nc3nnc(CC(C)C)s3)c2)CC1 | 7%
61 | COc1ccc2[nH]c3c(c2c1)CCN1C(=O)C(CC(=O)NCCN2CCOCC2)C[C@H](C(=O)N2CCCCC2)[C@@]31C (some centres undefined) | 7%
